Ecoli rRNA inh: reduced GFP signal of wild-type E. coli, primary screen, bacterial rRNA inhibitor project, GFP/RFP fluorescence, OD600, single point; E. coli WT GFP vs humanized-ribosome RFP mutants, 24 h; active compounds read low; DMSO median 0, no signal -100; actives 1.6% (n = 350,000); GFP signal change (wild-type ribosome), % (concentration not given with the values);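 active means significant combined selectivity score with lowered wild-type GFP, culture density cut under 30%, mutant RFP and density less affected; inactive means any of these conditions unmet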; further: one replicate is shown; some compounds called inactive have numbers as strong as hits
FGF22 binding: binders of human FGF22 protein, primary screen, FGF22 synaptogenesis inhibitor project, biophysical, thermal shift, single point; Fibroblast growth factor 22 (Homo sapiens), Q9HCT0; recombinant FGF22 thermal shift, SYPRO orange fluorescence; percent of sucrose octasulfate shift, DMSO zero; calls only at 9.99 µM; actives 1.5% (n = 340,000);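 active means melting point raised past a set limit in the mean and every replicate; three in four hits are not shown here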
MLL AF4-AF9 inh: inhibitors of AF4 peptide binding to AF9, primary screen, biochemical, AlphaScreen, biotin-AF4 peptide, FLAG-AF9, single point. Protein AF-9 (Homo sapiens), P42568. actives 0.47% (n = 350,000). inhibition, % at 10 µM. AID 651704, 2012;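 active means every replicate reaching a set inhibition limit, whatever the replicate mean, cut at about 25% in these data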;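 further: 0% = plate neutral control median and 100% = total signal loss; the record names both 10 and 1 µM as test concentration; the first replicate is given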
Target sequence (P42568 whole entry, looked up): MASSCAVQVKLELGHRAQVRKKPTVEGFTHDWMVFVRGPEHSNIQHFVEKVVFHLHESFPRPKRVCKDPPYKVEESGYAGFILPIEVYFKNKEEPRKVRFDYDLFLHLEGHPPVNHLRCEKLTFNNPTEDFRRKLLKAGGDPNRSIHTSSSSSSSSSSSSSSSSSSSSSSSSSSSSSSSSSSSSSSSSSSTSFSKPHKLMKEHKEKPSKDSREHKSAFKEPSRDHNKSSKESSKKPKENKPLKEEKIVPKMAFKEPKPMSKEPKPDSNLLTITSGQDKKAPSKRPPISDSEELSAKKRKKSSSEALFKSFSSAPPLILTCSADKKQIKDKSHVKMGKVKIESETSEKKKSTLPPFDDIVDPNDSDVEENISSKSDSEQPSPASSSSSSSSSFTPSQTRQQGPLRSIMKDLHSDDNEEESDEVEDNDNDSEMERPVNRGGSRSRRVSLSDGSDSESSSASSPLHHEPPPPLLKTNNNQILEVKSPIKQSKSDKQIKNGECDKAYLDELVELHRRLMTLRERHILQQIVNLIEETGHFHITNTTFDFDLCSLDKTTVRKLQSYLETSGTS
Vif A3G: inhibitors of Vif binding to APOBEC3G peptide, primary screen, biochemical, TR-FRET, GST-Vif 1-94, biotin-A3G peptide, dose response retest (AID 1117319). Virion infectivity factor (Human immunodeficiency virus type 1 group M subtype B (isolate …. TR-FRET GST-Vif / biotin-A3G peptide binding; higher % means a stronger effect; test concentration not given here; strong numbers were not always called active. one-dose inhibition, %; IC50 in µM for titrated hits. actives 0.57% (n = 260,000);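 active means above the screen mean plus three standard deviations and confirmed in dose response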;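 further: Vif residues 1-94 fused to GST binding biotinylated APOBEC3G peptide 110-148; 0% = full assay without inhibitor and 100% = GST in place of GST-Vif; retest series ran down from 100 µM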
HNF4A DNA FP: change in binding of human HNF4A to DNA, primary screen, biochemical, fluorescence polarization, FITC-DNA. Hepatocyte nuclear factor 4-alpha (Homo sapiens), P41235. 1 h. activity change, % at 10 µM. actives 0.3% (n = 360,000); in the data active means activity change above about 30%, passing the limit was not always enough;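 further: controls were the assay level and a saturating level of protein; the project sought stronger binding though the title names inhibitors; some compounds called inactive have numbers as strong as hits; positive values seem to mean higher polarization but the record does not say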
ALR inh: inhibitors of human ALR sulfhydryl oxidase, primary screen, biochemical, H2O2 detection, HRP-luminol luminescence, single point; FAD-linked sulfhydryl oxidase ALR (Homo sapiens), P55789; inhibition, % (concentration not given with the values); actives 3.8% (n = 290,000); purified ALR, DTT oxidation;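 active means mean and each replicate at 75% or more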;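 further: stock transfer was 7.5 nL into about 7.5 µL; 0% = neutral wells and 100% = wells with inactivated enzyme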
Ecoli rRNA inh OD600: also measured in Ecoli rRNA inh; calls as there; OD600 change, %; measured here: OD600 growth;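 optical density of the mix in the first replicate; 0 = DMSO median and -100 = no signal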
Ecoli rRNA inh RFP: also measured in Ecoli rRNA inh; calls as there; RFP signal change, %; measured here: RFP humanized mutant strains;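 first replicate; 0 = DMSO median and -100 = no signal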
The depositor's hits bear a star; i = inactive; & = joins results of further samples. These rows are one share of the data (hit frequency here may not be typical).

SMILES | Ecoli rRNA inh | Ecoli rRNA inh OD600 | Ecoli rRNA inh RFP | FGF22 binding | MLL AF4-AF9 inh | Vif A3G | HNF4A DNA FP | ALR inh
CC[C@@H]1C(=O)OC[C@@H]1Cc1cncn1C | 17.2&14.0 | 17.3&5.8 | 1.9&1.6 | i | -9.1&-1.7 | 4.4%&-11.6% | -0.3&1.7 | -6.5&-25.0
